Compound activity deposited in PubChem BioAssay by National Center for Advancing Translational Sciences (NCATS).
Sfp inh = blocks B. subtilis Sfp PPTase activity | Biochemical Sfp PPTase activity, qHTS | Q9F4F7 | 310,000 tested, 3.5% active | Potency, µM, for inactives: max response, negative = inhibition, hits mostly inhibitors; active = well fitted inhibition curve with a large enough effect; inconclusive = small, poorly fitted or top-dose-only effect, or another doubt; inactive = no such curve, though single readings can be large or run the other way;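 also: the enzyme is Sfp with the accession as filed and its product quenches rhodamine fluorescence; potency is read from the fitted curve at half-maximal effect; 0% = enzyme reaction without inhibitor and -100% = no enzyme wells; top concentration of the series not given in the record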
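With Hepes-Na pH 7.6 buffer containing 10 mM MgCl2, Sfp (15 nM) modified BHQ-2-YbbR (12.5 uM) using rhodamine-CoA (5 uM). Two reads 30 minutes apart at 525/598 nm yielded each well's rate.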
Six1-Eya2 inh = Six1/Eya2 interaction inhibition | AlphaScreen GST-Six1/His-Eya2 binding, biochemical; hits give low values; control for the full effect not named in the record | activity change, % (test concentration not listed) | Q15475+O00167 | 360,000 tested, 0.56% active; in the data active = activity change below about -65%; inconclusive = about -30% to -65%; inactive = above about -30%; also: % is scaled to controls: 0 for no effect and ±100 for the full control effect; compound concentration not given in the record
Target sequence (O00167 whole entry, looked up): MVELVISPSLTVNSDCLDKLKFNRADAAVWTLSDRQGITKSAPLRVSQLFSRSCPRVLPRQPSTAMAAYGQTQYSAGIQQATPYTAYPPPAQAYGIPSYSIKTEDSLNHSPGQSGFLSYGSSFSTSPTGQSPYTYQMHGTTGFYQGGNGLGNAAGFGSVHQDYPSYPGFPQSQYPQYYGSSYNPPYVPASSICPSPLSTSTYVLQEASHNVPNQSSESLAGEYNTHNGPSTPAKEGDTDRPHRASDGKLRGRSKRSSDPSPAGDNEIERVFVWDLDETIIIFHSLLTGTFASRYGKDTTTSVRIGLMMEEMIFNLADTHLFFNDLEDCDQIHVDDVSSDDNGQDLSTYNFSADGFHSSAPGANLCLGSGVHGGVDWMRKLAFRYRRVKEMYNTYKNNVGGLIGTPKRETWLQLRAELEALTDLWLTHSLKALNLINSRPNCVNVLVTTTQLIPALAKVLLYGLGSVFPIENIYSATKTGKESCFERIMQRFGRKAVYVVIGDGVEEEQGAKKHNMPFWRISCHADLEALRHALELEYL
Target sequence (Q15475 whole entry, looked up): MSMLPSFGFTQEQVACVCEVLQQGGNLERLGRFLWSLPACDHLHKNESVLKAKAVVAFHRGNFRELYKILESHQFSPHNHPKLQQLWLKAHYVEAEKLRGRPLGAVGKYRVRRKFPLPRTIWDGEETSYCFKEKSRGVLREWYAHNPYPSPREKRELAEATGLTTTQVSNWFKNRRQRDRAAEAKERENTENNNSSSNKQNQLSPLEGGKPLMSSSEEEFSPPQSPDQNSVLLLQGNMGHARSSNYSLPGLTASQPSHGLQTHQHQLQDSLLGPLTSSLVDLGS
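AlphaScreen luminescence read after one hour at 37 °C in darkness. Pin-transferred compounds met GST-Six1 and His-Eya2 protein (5X stock 250 nM/500 nM) plus glutathione donor and Ni-chelate acceptor beads (5X, 50 ug/mL).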
TRPV1 potentiator = human TRPV1 potentiation; AID 540277; TRPV1-expressing cells, Fluo-8 calcium influx, capsaicin EC20 potentiation; host cell line not named in the record; control for the full effect not named in the record; potentiation, % at 8.33 µM; 320,000 tested, 0.02% active; Q8NER1; active means potentiation above 80%; inconclusive means 30% to 80%; inactive means below 30%; also: 0% is about no effect
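Cells expressing TRPV1 were dye-loaded with Fluo-8 and read kinetically: 10 s baseline, 3 min after compound (agonist portion), then 2 min after EC20 capsaicin (allosteric enhancer portion). Calcium-bound dye fluorescence at 480/520 nm.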
CtBP-E1A inh = inhibitors of CtBP/E1A interaction; 340,000 tested, 0.49% active; activity change, % (no concentration beside the values); AlphaScreen GST-E1A/His-CtBP binding, 1536-well; hits give low values; control for the full effect not named in the record; in the data active means activity change below about -65%; inconclusive means about -30% to -65%; inactive means above about -30%; also: % is scaled to controls: 0 for no effect and ±100 for the full control effect; compound concentration not given in the record
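Homogeneous bead-based format: GST-tagged E1A captured on glutathione donor beads, His-tagged CtBP on nickel acceptor beads; compounds precede bead addition by 2 h at 37 °C.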
D2 agonist = agonists of human D2 dopamine receptor (beta-arrestin); 360,000 tested, 0.084% active; DiscoveRx PathHunter D2 beta-arrestin, luminescence, 90 min; 100% = 57 uM dopamine signal; activation, % (no concentration beside the values); in the data active = activation above about 40%; inconclusive = about 15% to 40%; inactive = below about 15%; also: compound concentration not given in the record; the text of the record calls up to 30% inactive
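Agonist mode: compounds alone added to overnight-plated D2 PathHunter cells for 90 min at 37 C, with 57 uM final dopamine (EC100) defining full response. Beta-arrestin recruitment detected by chemiluminescent reagent, read after 1 h at ambient temperature.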
PINK1 expr mod = PINK1 expression modulation; PINK1 immunofluorescence, high-content cytometry, 24 h; Potency, µM (doses to about 76.6 µM), for inactives: top-dose activation (PINK1 increase), most hits filed as activators; 410,000 tested, 0.2% active; active = well fitted activation curve with a large enough effect; inconclusive = small, poorly fitted or top-dose-only effect; inactive = flat fitted curve, though single readings scatter; cell line not stated here;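 also: potency is read from the fitted curve at half-maximal effect; % of control where 0% means no effect; nearly all actives have a fitted effect of over 65% in size; a mitochondrial uncoupler was the plate control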
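Measures PINK1 amount and localization on or inside mitochondria by immunofluorescence. Stable cells get compounds at 5 concentrations for 24 hours before fixation and staining; CCCP controls included.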
D2 PAM = human D2 receptor positive allosteric modulation. P14416. DiscoveRx D2 beta-arrestin cells, luminescence, 90 min; 100% = 57 uM dopamine signal. potentiation, % (test concentration not listed). 360,000 tested, 0.23% active. AID 624464; active = potentiation of 50% or more; inconclusive = 30% to 50%; inactive = 30% or less;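 also: compound concentration not given in the record; tested on top of an EC20 dose of dopamine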
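PathHunter beta-arrestin assay in DiscoveRx D2 cells. Compounds were added with an EC20 of dopamine (50 nM final) for 90 min at 37 deg C. Luminescence was read 1 h after detection reagent, with 57 uM dopamine as the EC100 control.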
Active calls of the source: *; ? = inconclusive; . = no result given; [ ] = remark or other dose. The order is random; any-hit rate near 3.7%.

SMILES	Sfp inh	Six1-Eya2 inh	TRPV1 potentiator	CtBP-E1A inh	D2 agonist	PINK1 expr mod	D2 PAM
CCCCc1c(O)nc(SCC(=O)O)[nH]c1=O	1%	3	3	9	-1.1	1.1%	-1
COc1ccc(N(C(=O)c2snc(C(N)=O)c2N)C(C(=O)NC2CCCCC2)c2ccc(C)o2)c(OC)c1 (stereo not given)	-4%	12	-4	-5	-2.5	0.6%	-17
CCCCNC(=O)C1(C)CCN1C(=O)c1ccc2ccccc2n1 (stereo not given)	.	-1	.	3	-2.2	-0.2%	0
CC(=O)c1cn(CCCCCCCn2cc(C(C)=O)c(=O)[nH]c2=O)c(=O)[nH]c1=O	2%	11	-2	24	0.9	1.3%	-2
CCOC(=O)CSc1nnc(Cc2ccccc2)n1CC1CCCO1 (stereo not given)	5%	6	1	2	-0.3	14%[38.3 µM]	1
NC(=O)C1CCN(C(=O)Nc2csc3ccccc23)CC1	-6%	5	-13	3	-5.5	1.5%	-9
CCOC(=O)c1ccc(S(=O)(=O)N2CCC(N3CCCCC3)CC2)cc1	15%	1	22	0	-2.1	-3.2%	-2
Cc1cc(-c2ccco2)n(-c2ccccc2)n1	?	-4	26	2	-6.2	4.1%	-4
COc1cc2c(cc1OC)C(c1ccc(N(C)C)cc1)CC(=O)N2 (stereo not given)	-27%	-20	5	-8	-1.0	-4.3%	-1
Cc1nc(CCNC(=O)Cc2ccccc2)cs1	27%	-4	2	10	-2.1	-0.2%	-7
CCCCSc1nnc(-c2ccc(C)cc2)c2ccccc12	-10%	0	6	5	5.6	?	-22
CN(CC(=O)Nc1ccccc1C(F)(F)F)C(=O)COc1ccccc1Cc1ccccc1	.	-4	-11	20	-1.9	-1.2%	3
Cc1ccc(NC2=NCC(Cc3ccc(Br)cc3)S2)cc1 (stereo not given)	-19%	2	-31	1	-0.4	?	-14
O=C(NCC(=O)N1CCCCCCC1)c1ccc(Br)o1	.	4	3	4	-2.8	-0.7%	-20
COc1ccc(Cc2nc3ccc(C(=O)NCC(C)(C)OC)cc3o2)cc1	14%	7	14	0	-4.2	0.3%	0
COc1ccc(C(=O)NCCNc2ccc([N+](=O)[O-])cn2)cc1	8%	-6	-4	-3	-9.3	-2.7%	-11
CCOC(=O)N1CCC(Nc2ccc(N3C(=O)C4CCCCC4C3=O)cc2[N+](=O)[O-])CC1 (stereo not given)	19%	-7	-12	-15	0.4	1.3%	-3
Cn1nnnc1SCCNCc1ccccc1F	-7%	3	4	3	-2.4	2.7%[38.3 µM]	-11
O=C(CCc1nnc(Cc2c[nH]c3ccccc23)o1)NC(C1CC1)C1CC1	13%	2	0	1	1.2	-0.6%	-8
COc1ccc(-c2cc(-c3nnc(COC(=O)CC4CC5CCC4C5)o3)c3ccccc3n2)cc1OC (stereo not given)	4%	1	-4	6	1.6	1.0%	-18
O=C(CN1CCN(CC(=O)c2ccc(F)cc2)CC1)Nc1ccccc1Cl	-16%	3	-14	0	-3.2	-1.1%	-12
COc1ccc(-c2cc(C(=O)n3cnc4ccccc43)c3ccccc3n2)cc1	-3%	-2	1	4	-1.7	1.3%	5
COc1nc(N(C)C)nc(N(C#N)S(=O)(=O)c2ccc(C)cc2)n1	-17%	-7	-1	?	-2.8	0.3%	-1
CN(Cc1ccccc1)C(=O)c1ccc(NC(=O)Cc2ccc(NC(=O)C3CCCN(C(=O)C4CCC4)C3)cc2)cc1 (stereo not given)	.	-1	.	1	-2.9	0.2%	0
Cc1cnc(C(=O)OCC(=O)Nc2cccc(S(=O)(=O)N3CCCCC3)c2)cn1	13%	-6	-6	4	-1.0	-0.2%	-24

2 of the compounds above, with two lines to a compound:
Values in the order – Sfp inh | Six1-Eya2 inh | TRPV1 potentiator | CtBP-E1A inh | D2 agonist | PINK1 expr mod | D2 PAM
CCCCSc1nnc(-c2ccc(C)cc2)c2ccccc12
    -10% | 0 | 6 | 5 | 5.6 | ? | -22
CN(CC(=O)Nc1ccccc1C(F)(F)F)C(=O)COc1ccccc1Cc1ccccc1
    . | -4 | -11 | 20 | -1.9 | -1.2% | 3

Profiles, looked up by structure:
CCOC(=O)c1ccc(S(=O)(=O)N2CCC(N3CCCCC3)CC2)cc1 in the list: Sfp inh: 15%; Six1-Eya2 inh: 1; TRPV1 potentiator: 22; CtBP-E1A inh: 0; D2 agonist: -2.1; PINK1 expr mod: -3.2%; D2 PAM: -2
Cc1cc(-c2ccco2)n(-c2ccccc2)n1 in the list: Sfp inh: ?; Six1-Eya2 inh: -4; TRPV1 potentiator: 26; CtBP-E1A inh: 2; D2 agonist: -6.2; PINK1 expr mod: 4.1%; D2 PAM: -4

Other compounds follow.
SMILES	Sfp inh	Six1-Eya2 inh	TRPV1 potentiator	CtBP-E1A inh	D2 agonist	PINK1 expr mod	D2 PAM
O=C(O)/C(=C\c1ccccc1)c1ccc2ccccc2c1	.	3	.	3	-0.3	0.0%	-3
CCOc1ccc(C2C3=C(CC(C)(C)CC3=O)N(CCCOC)C3=C2C(=O)CC(C)(C)C3)cc1OC	.	-1	.	3	-1.0	-1.0%	-4
CC1=NNC(=O)C1C(c1cccc(O)c1)C(C#N)C#N (stereo not given)	3%	4	11	.	-3.6	-1.1%	-11
CN(C)c1ccc(C(=O)OCC(=O)N2CCCC2)cc1	7%	5	-2	-2	-1.6	0.4%	3
CCN(Cc1ccccc1)Cc1nc(CCc2ccccc2)no1	5%	47	-3	.	-2.8	2.5%	-11
Cc1cc2[nH]c(=O)c(=O)[nH]c2cc1S(=O)(=O)NC1CCC(C)CC1 (stereo not given)	15%	2	18	.	4.1	2.0%	-1
Cc1ccc(N(CC(=O)NCCSCc2ccco2)S(=O)(=O)c2ccc(C)cc2)cc1	7%	-7	-7	-6	-2.1	0.3%	-16
CC1=C(C(=O)NCCN2CCOCC2)C2(CCC(C)CC2)OC1=O (stereo not given)	6%	3	-26	4	0.2	-0.4%	-5
O=C(Cn1ncc2c1-c1ccccc1OC2)N(Cc1ccco1)C1CCCCC1	-10%	-11	.	3	-2.6	0.2%	-3
CC(Oc1ccccc1)C(=O)N1CCN(c2ncccn2)CC1 (stereo not given)	.	-10	-4	4	6.3	-2.0%	-2
COC(=O)c1ccc(NC(=O)Nc2ccc(OC)c(OC)c2)cc1	15%	-6	-1	-7	0.5	-1.8%	-9
COc1ccc(S(=O)(=O)N2CCN(C(=O)CCOc3ccccc3)CC2)cc1OC	.	5	-3	.	0.3	1.6%	-5
CCc1nnc(NC(=O)c2ccc(N(C)S(=O)(=O)c3ccccc3)cc2)s1	11%	-1	0	7	-1.9	3.5%[38.3 µM]	-15
COc1ccccc1/C=C(\NC(=O)c1cccc(C)c1)C(=O)Nc1ccccn1	16%	1	-1	-2	-3.1	-1.7%	-10
C/C(=N\OC(=O)NC1CCCCC1)c1sc(-c2ccccc2)nc1C	-9%	4	-1	14	-1.5	.	-26
O=C(COC(=O)C1=COCCO1)Nc1ccccc1Oc1ccccc1	7%	3	7	1	-1.9	3.5%[38.3 µM]	-4
COc1ccc(-c2nnc(NC(=O)CS(=O)(=O)c3ccc(F)cc3)o2)c(OC)c1	.	?	-9	?	0.6	-0.1%	2
CC1CCCCC1NC(=O)c1cc(S(=O)(=O)N2CCOCC2)ccc1Cl (stereo not given)	.	6	.	4	3.7	2.8%	-3
O=C(COc1ccc2ccc(=O)oc2c1)Nc1cccnc1	14%	3	11	.	-7.5	-0.3%	-8
CCN1C(N(C)C)=NC[C@@H]1Cc1ccccc1	.	4	?	3	-4.0	-0.1%	-8
COc1ccc(-c2cc(=O)oc3cc(OCC(=O)N[C@@H](Cc4c[nH]c5ccccc45)C(=O)O)ccc23)cc1	-17%	?	12	?	-2.4	1.3%	-11
Cc1ccc(S(=O)(=O)Nc2cc(C)nn2-c2ccccc2)cc1	10%	13	-9	0	-0.5	0.3%	-5
COc1ccccc1NC(=O)CCCCCN1C(=O)c2cccc([N+](=O)[O-])c2C1=O	-5%	-1	-3	0	-0.5	3.6%	1
O=C(O)c1cc2c(cc1NC(=O)C1CCCC1)OCCO2	.	-1	2	.	-6.3	-1.0%	-8
FC(F)(F)c1ccc(-c2cccc3c2C2CC3CCN2Cc2ccc3c(c2)OCO3)cc1 (stereo not given)	.	-8	.	3	-1.2	7.6%	-1
Cc1cccc(NC(=S)NNC(=O)c2csc(C)c2)c1	4%	2	16	3	-8.7	-0.7%	-40
O=C(NN=Cc1ccc2c(c1)OCO2)c1ccccc1	.	-18	.	-8	-0.3	1.3%	-10
CCC(CO)N=CC1=C(O)CC(C)(C)CC1=O (stereo not given)	8%	8	-6	-18	-4.3	1.0%	0
Cn1cccc1/C=C1\CCc2ccccc2C1=O	4%	-25	2	?	-3.6	-0.7%	-1
O=C1C(=O)N(CCN2CCOCC2)C(c2ccccc2F)/C1=C(\O)c1ccc(S(=O)(=O)N2CCOCC2)cc1 (stereo not given)	-3%	8	0	0	-3.9	3.3%	-11

A draw from above in order of formula weight, highest first.
SMILES	Sfp inh	Six1-Eya2 inh	TRPV1 potentiator	CtBP-E1A inh	D2 agonist	PINK1 expr mod	D2 PAM
FC(F)(F)c1ccc(-c2cccc3c2C2CC3CCN2Cc2ccc3c(c2)OCO3)cc1 (stereo not given)	.	-8	.	3	-1.2	7.6%	-1
Cc1cc2[nH]c(=O)c(=O)[nH]c2cc1S(=O)(=O)NC1CCC(C)CC1 (stereo not given)	15%	2	18	.	4.1	2.0%	-1
Cn1cccc1/C=C1\CCc2ccccc2C1=O	4%	-25	2	?	-3.6	-0.7%	-1
